GALR2 agonist: agonists of human galanin receptor 2 (GALR2) | O43603 | GALR2-expressing cells, agonist activation read-out | activation, %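 (tested at 5 µM)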 | 140,000 tested, 0.48% active | AID 803;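 active = above mean plus 3 SD of all compounds, about 5% in these data, not always enough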;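 also: 0% = vehicle buffer wells and 100% = reference agonist at full effect; tested in CHO reporter cells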
Target sequence (O43603 whole entry, looked up): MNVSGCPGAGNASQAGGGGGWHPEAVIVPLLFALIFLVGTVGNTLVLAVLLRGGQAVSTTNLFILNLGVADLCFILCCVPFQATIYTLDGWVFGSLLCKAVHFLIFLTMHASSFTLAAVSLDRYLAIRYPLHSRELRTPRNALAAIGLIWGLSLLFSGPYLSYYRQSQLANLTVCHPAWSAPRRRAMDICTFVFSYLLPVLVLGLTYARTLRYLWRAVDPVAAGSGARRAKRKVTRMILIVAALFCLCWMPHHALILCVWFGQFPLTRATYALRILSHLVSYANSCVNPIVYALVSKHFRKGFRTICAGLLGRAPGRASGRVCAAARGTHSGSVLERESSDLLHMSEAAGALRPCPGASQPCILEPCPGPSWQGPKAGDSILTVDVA
PKD1 kinase inh: blocks activity of human protein kinase D1 | Q15139 | PKD1 kinase fluorescence polarization assay | inhibition, %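 (about 10 µM by stock and volumes)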 | 200,000 tested, 0.056% active;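 active = inhibition of 50% or more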;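 also: controls were vehicle for no effect and a reference inhibitor for full effect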
HSV augment: HSV replication enhancement; HSV replication augmentation in cells, fold increase; maximum fold increase; 220,000 tested, 0.005% active; AID 1956;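 active = peak rise of 1.5-fold or more in the series; tested in PC3 cells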;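 also: first round at 10 µM; read as green reporter fluorescence; hits show the peak of a series up to 25 µM; 1 = signal of infected wells without compound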
RGS16-Gao: regulators of human RGS16-Galphao interaction. 220,000 tested, 0.38% active. O15492+P09471. bead-based flow cytometry RGS16-Galphao binding, fluorescence; actives lie on both sides. binding response (% of control), % at 10 µM;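 active = below 25% or above 175%, edge rows of some plates excepted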;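 also: Galphao activated by GDP with aluminum fluoride before binding; 100% = wells without compound and 0% = beads without RGS; some results beyond the cut were filed as inactive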
Target sequence (O15492 whole entry, looked up): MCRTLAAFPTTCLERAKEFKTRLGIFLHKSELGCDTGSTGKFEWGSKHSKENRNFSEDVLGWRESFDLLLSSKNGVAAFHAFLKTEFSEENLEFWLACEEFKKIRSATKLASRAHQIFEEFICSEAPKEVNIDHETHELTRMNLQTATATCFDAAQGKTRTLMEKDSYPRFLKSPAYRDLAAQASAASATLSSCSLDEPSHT
Target sequence (P09471 whole entry, looked up): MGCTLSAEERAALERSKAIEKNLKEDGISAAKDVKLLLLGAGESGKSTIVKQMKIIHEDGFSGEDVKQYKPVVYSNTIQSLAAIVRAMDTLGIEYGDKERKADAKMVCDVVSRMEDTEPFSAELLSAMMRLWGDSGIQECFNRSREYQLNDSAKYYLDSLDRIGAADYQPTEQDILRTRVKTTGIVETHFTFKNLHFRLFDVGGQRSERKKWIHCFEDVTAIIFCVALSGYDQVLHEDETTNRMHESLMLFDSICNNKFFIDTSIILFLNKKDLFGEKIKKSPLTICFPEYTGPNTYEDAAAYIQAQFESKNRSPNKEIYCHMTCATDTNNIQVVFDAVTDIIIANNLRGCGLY
INS promoter inh: TRM-6 insulin promoter activity inhibition | inhibition, % at 2 µM | AID 1273 | 130,000 tested, 0.9% active | TRM-6 cells (human fetal islet line), insulin promoter-eGFP reporter, imaging; reporter expression induced with tamoxifen;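 active = inhibition above the mean plus 3 SD, with well images judged a real hit on visual review, cut at about 60% in these data, passing the limit was not always enough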
INS promoter inh cell count: further read-out of INS promoter inh, marked with its call; normalized cell count, %; measured here: cell count, toxicity; reference of the scale not given here;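 cells exposed to compound for 48 h; stained nuclei by imaging scaled within each plate; lower means fewer cells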
HSV augment primary fold: second read-out of HSV augment, no call of its own (marks repeat the call); fold increase; compound at 10 µM; measured here: primary screen fold increase 10 uM; tested in PC3 cells;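 GFP signal in the first replicate; 1 = infected wells without compound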
* = called active by the depositor; i = inactive; / = no result given.

SMILES	GALR2 agonist	PKD1 kinase inh	HSV augment	HSV augment primary fold	RGS16-Gao	INS promoter inh	INS promoter inh cell count
Cc1ccc(C(=O)Nc2cccnc2)cc1S(=O)(=O)N1CCOCC1	-2.7	1	i	0.82	92	55	143
Cc1ccc(NC(=O)CNc2cccc(C)c2C)c(C)c1	-1.4	-2	/	/	101	67	90
O=C(O)c1cnn2c1C(=O)N(Cc1cccs1)CC2	/	0	i	0.99	102	/	/
CCCc1nc2c(=O)[nH]c3ccccc3c2o1	-2.3	10	i	0.89	59	/	/
COc1cc(OC)cc(C(=O)N/N=C/c2ccc(OC)c(COc3ccc(F)cc3)c2)c1	1.1	-5	/	/	101	/	/
CCOC(=O)c1c(C)[nH]c(NC(=O)Nc2c(C)n(C)n(-c3ccccc3)c2=O)c1C	-0.7	-7	i	1.1	101	3	122
CCc1ccccc1NC(=S)/N=C(\N)Nc1nc(C)c2cc(C)ccc2n1	-1.6	-7	i	0.87	106	/	/
CCOC(=O)c1nn(-c2ccccc2F)c2nc(Nc3ccccc3)cc(=O)n12	1.1	-12	i	0.85	104	-46	137
N#C/C(=C\c1ccncc1)c1nc2ccccc2[nH]1	/	-5	i	1.2	101	/	/
CCOc1ccccc1NC(=O)C1CCCN(C(=O)Nc2ccccc2)C1 (stereo not given)	-3.1	5	i	0.9	87	59	122
COc1ccc(C(=O)COc2ccccc2C#N)cc1	/	/	i	0.91	102	/	/
Cc1ccc(N2CC(C(=O)OCC(=O)C(C)(C)C)CC2=O)cc1 (stereo not given)	-2.0	-2	i	0.89	93	-21	83
Cc1cccc(NC(=O)C2CCCN2C(=O)NC2CCCCC2)c1 (stereo not given)	/	-11	i	0.93	105	/	/
COCCN1C(=S)NC(c2cccc(C(F)(F)F)c2)C(C(=O)N2CCOCC2)=C1C (stereo not given)	/	-7	i	0.79	93	/	/
Cc1cc(-c2nnc3sc(C4CCCCC4)nn23)n[nH]1	0.9	9	i	0.76	103	/	/
CC(=O)Nc1ccc(N(C(=O)Cc2c[nH]c3ccccc23)C(C(=O)NC2CCCCC2)c2ccco2)cc1 (stereo not given)	-0.2	-22	i	0.95	114	16	89
O=S1(=O)CCC(N=Cc2cc(Br)ccc2O)C1 (stereo not given)	-2.1	-13	i	0.93	147	-38	91
CC(=O)O[C@H]1CC[C@H]2[C@@H]3CCc4cc(O)ccc4[C@H]3CC[C@]12C	0.5	-8	i	0.98	100	-150	27
CN1CCN(NC(=S)Nc2ccc(Oc3ccccc3)cc2)CC1	/	4	i	0.97	96	/	/
CN(C)c1ccc(NC(=O)CCn2c(=S)oc3ccccc32)cc1	/	2	i	0.95	101	27	132
CCCn1nc(NC(=O)c2ccccn2)c2cc3cc(C)ccc3nc21	2.6	5	i	0.88	96	20	141
CNC(=S)NNC(=O)c1sc(-c2cc(C)on2)nc1C	/	/	i	0.89	118	/	/
COCCSc1ccccc1C(=O)Nc1cc(C)on1	-1.6	1	i	1	85	14	124
O=C(/C=C/c1ccco1)NCC(=O)N/N=C/c1ccc(Cl)cc1	/	-4	i	0.93	109	21	74
CCN(CC)CCNC(=O)c1cc([N+](=O)[O-])c(N(C)C)cc1OC	/	/	i	1	98	/	/

Part of the list above in a different format:
COc1cc(OC)cc(C(=O)N/N=C/c2ccc(OC)c(COc3ccc(F)cc3)c2)c1
  GALR2 agonist = 1.1; PKD1 kinase inh = -5; HSV augment = /; HSV augment primary fold = /; RGS16-Gao = 101; INS promoter inh = /; INS promoter inh cell count = /
CCOC(=O)c1nn(-c2ccccc2F)c2nc(Nc3ccccc3)cc(=O)n12
  GALR2 agonist = 1.1; PKD1 kinase inh = -12; HSV augment = i; HSV augment primary fold = 0.85; RGS16-Gao = 104; INS promoter inh = -46; INS promoter inh cell count = 137
CCN(CC)CCNC(=O)c1cc([N+](=O)[O-])c(N(C)C)cc1OC
  GALR2 agonist = /; PKD1 kinase inh = /; HSV augment = i; HSV augment primary fold = 1; RGS16-Gao = 98; INS promoter inh = /; INS promoter inh cell count = /
O=S1(=O)CCC(N=Cc2cc(Br)ccc2O)C1 (stereo not given)
  GALR2 agonist = -2.1; PKD1 kinase inh = -13; HSV augment = i; HSV augment primary fold = 0.93; RGS16-Gao = 147; INS promoter inh = -38; INS promoter inh cell count = 91

Single records, from the list above. Values in the order: GALR2 agonist | PKD1 kinase inh | HSV augment | HSV augment primary fold | RGS16-Gao | INS promoter inh | INS promoter inh cell count
`Cc1cc(-c2nnc3sc(C4CCCCC4)nn23)n[nH]1` is listed as 0.9 | 9 | i | 0.76 | 103 | / | /
`CNC(=S)NNC(=O)c1sc(-c2cc(C)on2)nc1C` is listed as / | / | i | 0.89 | 118 | / | /
`COc1cc(OC)cc(C(=O)N/N=C/c2ccc(OC)c(COc3ccc(F)cc3)c2)c1` is listed as 1.1 | -5 | / | / | 101 | / | /
`Cc1cccc(NC(=O)C2CCCN2C(=O)NC2CCCCC2)c1` (stereo not given) is listed as / | -11 | i | 0.93 | 105 | / | /
`CC(=O)Nc1ccc(N(C(=O)Cc2c[nH]c3ccccc23)C(C(=O)NC2CCCCC2)c2ccco2)cc1` (stereo not given) is listed as -0.2 | -22 | i | 0.95 | 114 | 16 | 89

3 entries from above, sorted by molar mass, highest first.
SMILES	GALR2 agonist	PKD1 kinase inh	HSV augment	HSV augment primary fold	RGS16-Gao	INS promoter inh	INS promoter inh cell count
CCOC(=O)c1nn(-c2ccccc2F)c2nc(Nc3ccccc3)cc(=O)n12	1.1	-12	i	0.85	104	-46	137
Cc1ccc(C(=O)Nc2cccnc2)cc1S(=O)(=O)N1CCOCC1	-2.7	1	i	0.82	92	55	143
CCCn1nc(NC(=O)c2ccccn2)c2cc3cc(C)ccc3nc21	2.6	5	i	0.88	96	20	141

Going on with the list:
SMILES	GALR2 agonist	PKD1 kinase inh	HSV augment	HSV augment primary fold	RGS16-Gao	INS promoter inh	INS promoter inh cell count
C/C(=N\NC(=O)c1c[nH]c2ccccc12)c1ccc2c(c1)OCO2	/	-1	i	0.9	99	/	/
NC1=NC(=O)C(CC(=O)NCc2ccccc2)S1 (stereo not given)	/	-2	i	1	101	9	52
Cc1ccc(C(=O)NN2C(=O)/C(=C/c3cccn3C)SC2=S)cc1	-0.5	-6	i	0.99	113	12	109
COc1ccc(-c2csc(Nc3ccccc3)[n+]2CC(O)c2ccc([N+](=O)[O-])cc2)cc1 (stereo not given)	/	/	i	0.97	106	/	/
Cc1ccc(S(=O)(=O)NNC(=S)NC(=O)c2ccc([N+](=O)[O-])cc2)cc1	-2.4	-15	i	1	116	-26	101
O=C(CSc1nnc(CN2CCCCCC2=O)n1-c1ccccn1)NCC(F)(F)F	-0.8	-8	i	0.67	102	/	/
CSc1ccc(S(=O)(=O)NC2CCCCC2)cc1	-1.3	-1	i	0.87	97	27	89
Cc1cc(C)n2nc(S(=O)(=O)N(C)Cc3ccccc3)nc2n1	-2.3	-3	i	1	100	60	68
N#Cc1cc(NC(=O)c2ccc(F)cc2)c(=O)n2c1[nH]c1ccccc12	/	-2	i	1.1	105	/	/
Cc1ccc(S(=O)(=O)N2CCCC2C(=O)OCc2nc3sc(C)c(C)c3c(=O)[nH]2)cc1 (stereo not given)	-1.5	9	i	0.82	105	31	118
COc1ccc(N2C(=O)c3ccccc3NC23C(=O)N(C)c2ccccc23)cc1 (stereo not given)	-1.5	-6	i	1	103	46	56
C/C=C/c1ccc(OCCOc2ccc(C=O)cc2OC)c(OC)c1	-1.0	-1	i	1.1	99	/	/
COC(=O)c1c(C)oc(C)c1S(=O)(=O)NCc1ccc(Cl)cc1	/	/	i	1.1	98	/	/
O=C(O)CC(=O)Nc1ccccc1C(=O)O	-0.5	2	i	0.99	97	33	84
CC(C)=CCN1CCN(Cc2cccn2-c2ncccn2)CC1CCO (stereo not given)	/	4	i	0.94	100	/	/
COc1ccc2c(CN(C)c3ccccc3)cc(=O)oc2c1	-2.2	4	i	0.82	71	/	/
O=C(NN1C(=O)c2ccc(-c3ccc4c(c3)C(=O)N(NC(=O)c3cccnc3)C4=O)cc2C1=O)c1cccnc1	/	-8	i	0.93	110	-6	62
CCN(CC)CCC(c1ccc2c(c1)OCO2)c1c(OC)cc(OC)c2c(-c3ccccc3)cc(=O)oc12 (stereo not given)	/	/	i	0.63	100	/	/
COc1ccc(CCNCc2ccc(OCc3ccc(Cl)nc3)c(OC)c2)cc1OC	-0.9	-2	i	0.89	77	15	171
Cc1ccc(/C=C/C(=O)C2C(=O)c3ccccc3C2=O)cc1	-3.4	-4	i	0.79	107	/	/
CCC(C)(C(=O)NC1CCCC1)N(Cc1ccco1)C(=O)Cc1cccs1 (stereo not given)	0.4	-5	i	0.89	107	-84	90
O=C(CC1CCCCC1)NCC1CCCO1 (stereo not given)	-0.7	-13	i	1	95	-19	115
O=C(Nc1ccccc1C(F)(F)F)c1cc(-c2cccc(O)c2)on1	-2.3	2	i	0.97	105	/	/
COc1ccc(-c2nc(-c3ccc4c(c3)OCO4)[nH]c2-c2ccc(OC)cc2)cc1	-1.5	7	i	0.8	88	19	94
Cc1ccccc1OCCC(=O)Nc1ccc(Cl)cc1F	0.2	-2	/	/	103	-33	125

New compounds follow.
SMILES	GALR2 agonist	PKD1 kinase inh	HSV augment	HSV augment primary fold	RGS16-Gao	INS promoter inh	INS promoter inh cell count
COc1ccc(Nc2cnn(-c3nc4ccccc4s3)c(=O)c2Cl)cc1	0.2	-6	i	0.65	160	7	21
Cc1cc(C(F)F)n2ncc(C(=O)NCCc3ccc(Cl)cc3)c2n1	-0.4	1	i	0.88	108	29	119
COc1ccc(N2CCN(C(=O)c3ccc(CS(=O)(=O)c4ccc(OC)cc4)o3)CC2)cc1	-7.1	-9	i	0.9	100	/	/
COCCNC(=O)/C(C#N)=C\c1ccc(CNS(=O)(=O)c2ccc(C)cc2)o1	/	-2	i	0.71	98	/	/
CCOc1ccc2nc(C(=O)N3CCCC(C)C3)sc2c1 (stereo not given)	-1.9	-4	i	1	126	-15	92
Cc1c(C(=O)Nc2ccc3c(c2)CCC3)cccc1[N+](=O)[O-]	-0.3	-4	i	0.93	116	-36	111
CC(c1n[nH]c(=S)n1-c1ccc(Cl)cc1)N(C)C (stereo not given)	-1.0	1	i	0.97	115	14	102
CC(C)CCNC(=O)C(C)N(Cc1ccc(F)cc1)C(=O)c1ccc(CN2CCCCC2)o1 (stereo not given)	0.2	2	i	0.88	114	-38	102
CCCCNC(=O)N(C)c1nc2ccccc2s1	/	6	i	0.79	98	/	/
O=C(Oc1coc(CSc2ncccn2)cc1=O)c1ccco1	/	-2	i	0.94	92	/	/
COc1ccc(CC(=O)N2N=C(c3ccncc3)CC2(O)C(F)(F)F)cc1 (stereo not given)	/	-5	i	0.81	90	/	/
CC(C)Cn1c2c(c(O)c(C(=O)Nc3nc4ccccc4s3)c1=O)CCCC2	/	/	i	0.93	102	/	/
COc1ccc(CC(=O)OC(C)CN2CCCC2)cc1 (stereo not given)	-1.3	3	i	0.76	104	14	86
Cc1ccccc1C(=O)NC(=S)Nc1sc2c(c1C#N)CCC(C)C2 (stereo not given)	-0.2	11	i	0.65	98	/	/
CCOC(=O)N1CCN(CC(=O)Nc2c(C(=O)OC)[nH]c3cc(C)ccc23)CC1	-2.6	-13	i	0.98	101	-17	125
CC(C)=CCCC(C)CN1CCC(N2CCC(C(=O)N3CCCC3)CC2)CC1 (stereo not given)	/	-7	i	0.88	101	/	/
c1ccc(-c2cc3c(N4CCN(c5ccccc5)CC4)ncnc3s2)cc1	/	7	i	0.92	101	/	/
CCOC(=O)N=S(N)(=O)c1ccc(Cl)cc1 (stereo not given)	-2.2	-1	i	0.6	104	23	136

Screening results as filed in PubChem BioAssay.

Rows were taken by chance. About 1.2% of those tested had a hit in this group.
